HNF4A DNA FP – change in binding of human HNF4 alpha to DNA. P41235. HNF4a-FITC DNA binding, fluorescence polarization, 1 h. activity change, % at 10 µM. 360,000 compounds, 0.3% hits; in the data active = activity change above about 30%, passing the limit was not always enough;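 note: controls were the assay level and a saturating level of protein; the project sought stronger binding though the title names inhibitors; some compounds called inactive have numbers as strong as hits; positive values seem to mean higher polarization but the record does not say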
Vif TR-FRET – HIV-1 Vif–A3G interaction blockers – biochemical, TR-FRET, GST-Vif 1-94, biotin-A3G peptide, dose response retest, primary screen (AID 1117319) | TR-FRET GST-Vif / biotin-A3G peptide binding; higher % means a stronger effect; test concentration not given here; strong numbers were not always called active | inhibition, %, or IC50 in µM where a hit was titrated | 260,000 compounds, 0.57% hits;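 active = above the screen mean plus three standard deviations and confirmed in dose response; inconclusive = results disagree or hit not tested in dose response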;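 note: Vif residues 1-94 fused to GST binding biotinylated APOBEC3G peptide 110-148; 0% = full assay without inhibitor and 100% = GST in place of GST-Vif; retest series ran down from 100 µM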
ALR H2O2 inh – human ALR oxidase inhibition via reduced H2O2 | P55789 | purified ALR, DTT oxidation, H2O2 HRP-luminol luminescence | inhibition, % (test concentration not listed) | 290,000 compounds, 3.8% hits;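 active = mean and each replicate at 75% or more; inconclusive = only one of the two met; inactive = neither met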;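 note: stock transfer was 7.5 nL into about 7.5 µL; 0% = neutral wells and 100% = wells with inactivated enzyme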
Target sequence (P55789 whole entry, looked up): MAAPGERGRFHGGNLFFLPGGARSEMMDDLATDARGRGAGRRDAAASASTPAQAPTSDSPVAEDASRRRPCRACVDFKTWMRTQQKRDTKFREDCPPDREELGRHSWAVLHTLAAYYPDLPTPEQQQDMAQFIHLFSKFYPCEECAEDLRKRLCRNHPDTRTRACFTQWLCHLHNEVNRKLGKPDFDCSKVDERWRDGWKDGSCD
MLL AF4-AF9 inh – MLL-AF4/AF9 protein interaction inhibition; P42568; AID 651704; inhibition, % at 10 µM; 350,000 compounds, 0.47% hits; AlphaScreen, biotin-AF4 peptide binding to FLAG-AF9;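 active = every replicate reaching a set inhibition limit, whatever the replicate mean, cut at about 25% in these data; inconclusive = mean inhibition reaches that limit but some replicates miss it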;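 note: 0% = plate neutral control median and 100% = total signal loss; the record names both 10 and 1 µM as test concentration; the first replicate is given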
Target sequence (P42568 whole entry, looked up): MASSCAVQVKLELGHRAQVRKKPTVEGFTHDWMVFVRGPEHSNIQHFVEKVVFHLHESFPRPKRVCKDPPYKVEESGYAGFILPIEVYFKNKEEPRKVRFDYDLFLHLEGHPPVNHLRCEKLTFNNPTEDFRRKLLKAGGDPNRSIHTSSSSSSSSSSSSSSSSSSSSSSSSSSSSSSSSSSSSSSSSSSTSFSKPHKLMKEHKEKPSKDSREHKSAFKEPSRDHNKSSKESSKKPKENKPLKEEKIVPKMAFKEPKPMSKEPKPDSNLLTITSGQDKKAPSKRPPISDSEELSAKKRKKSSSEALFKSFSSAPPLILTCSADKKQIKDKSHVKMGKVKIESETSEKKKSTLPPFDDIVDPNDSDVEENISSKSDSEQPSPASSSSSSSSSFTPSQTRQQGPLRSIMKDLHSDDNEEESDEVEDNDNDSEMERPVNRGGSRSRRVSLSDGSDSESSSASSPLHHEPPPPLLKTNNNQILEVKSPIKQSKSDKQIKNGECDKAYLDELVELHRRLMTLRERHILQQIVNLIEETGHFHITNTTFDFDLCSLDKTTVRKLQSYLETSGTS
FGF22 binding – binders of recombinant human FGF22 by thermal shift. SYPRO orange fluorescence; percent of sucrose octasulfate shift, DMSO zero. Q9HCT0. calls only at 9.99 µM. 340,000 compounds, 1.5% hits;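 active = melting point raised past a set limit in the mean and every replicate; inconclusive = no clear call; three in four hits are not shown here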
Target sequence (Q9HCT0 whole entry, looked up): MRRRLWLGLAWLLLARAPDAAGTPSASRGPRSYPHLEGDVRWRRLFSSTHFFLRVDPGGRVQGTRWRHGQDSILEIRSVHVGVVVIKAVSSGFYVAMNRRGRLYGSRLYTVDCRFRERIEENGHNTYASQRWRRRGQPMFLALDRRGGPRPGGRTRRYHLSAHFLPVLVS
E coli growth – E. coli growth inhibition; 330,000 compounds, 0.21% hits; Escherichia coli growth, OD600, 23 h; stronger effect = lower value; AID 1053175; OD600 absorbance (no concentration beside the values);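 active = OD600 absorbance below the run mean of sample wells minus 3.6 SD, in any replicate, cut at about 0.56 in these data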;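 note: stock transfer was 300 nL into about 60 µL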
Ecoli rRNA inh – inhibits bacterial ribosomal RNA function over humanized ribosomes. E. coli WT GFP vs humanized-ribosome RFP mutants, fluorescence, 24 h; stronger effect = lower value; DMSO median 0, no signal -100. GFP signal change (wild-type ribosome), % (concentration not given with the values). 350,000 compounds, 1.6% hits. AID 720706;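 active = significant combined selectivity score with lowered wild-type GFP, culture density cut under 30%, mutant RFP and density less affected; inactive = any of these conditions unmet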; note: one replicate is shown; some compounds called inactive have numbers as strong as hits
Ecoli rRNA inh OD600 – recorded beside Ecoli rRNA inh, whose call it bears; OD600 change, %; measured here: OD600 growth;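 optical density of the mix in the first replicate; 0 = DMSO median and -100 = no signal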
Ecoli rRNA inh RFP – also measured in Ecoli rRNA inh; calls as there; RFP signal change, %; measured here: RFP humanized mutant strains;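 first replicate; 0 = DMSO median and -100 = no signal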
Active calls of the source: *; i = inactive; ? = inconclusive; / = no result given; & = joins results of further samples. Not all compounds are listed, so the mix of outcomes need not match the whole.

Every second line gives: HNF4A DNA FP | Vif TR-FRET | ALR H2O2 inh | MLL AF4-AF9 inh | FGF22 binding | E coli growth | Ecoli rRNA inh | Ecoli rRNA inh OD600 | Ecoli rRNA inh RFP
C[C@H]1CCCCO[C@H](CN(C)C(=O)CCC(F)(F)F)[C@@H](C)CN([C@@H](C)CO)C(=O)c2cc(NC(=O)Nc3ccc4c(c3)OCO4)ccc2O1
    / | / | / | 9.4 | i | / | 0.1 | 1.3 | 2.5
O=c1[nH]c(CSc2nnc(-c3ccncc3)n2Cc2ccco2)nc2ccccc12
    -3.2 | 29.3% | -9.9 | / | / | 0.663 | 5.2 | 5.0 | 0.9
CC(=NCCN1CCN(C(=S)Nc2ccccc2)CC1)C1=C(O)CC(C)(C)CC1=O
    1.0 | 4.4% | -4.0 | / | / | 0.712 | / | / | /
Cc1noc(C)c1C(=O)N1CCCC(C(=O)c2ccc(Cl)cc2)C1 (centres undefined)
    1.3 | / | -7.1 | -0.7 | i | 0.697 | 4.8 | 2.7 | -1.0
O=C(CSc1ccc2ccccc2n1)NC1CC1
    1.5 | 7.7% | 2.6 | 0.0 | i | 0.672 | 5.4 | -4.1 | -2.0
CC(=O)N1CCN(CC(=O)Nc2ccccc2Sc2ccc(Cl)cc2)CC1
    2.5 | -1.7% | -1.9 | 5.0 | i | 0.7 | -24.1 | -20.0 | -2.9
NCC[C@H]1CC[C@@H](NS(=O)(=O)Cc2ccccc2)[C@H](CO)O1
    / | / | / | 0.8 | i | / | 1.8 | 1.8 | 0.1
CC(=O)Nc1ccc(NC(=O)COC(=O)c2cnccn2)cc1
    -0.1 | 11.6% | -5.6 | -0.9 | i | 0.727 | 5.1 | 6.7 | -8.7
COc1ccc(NC(=O)CNC(=O)c2sc3ccccc3c2Cl)c(OC)c1
    3.7 | -12.6% | -7.6 | -3.1 | i | 0.714 | 5.5 | 6.8 | 1.8
Cc1noc(C)c1S(=O)(=O)Nc1ccc2c(c1)C(=O)N([C@H](C)CO)C[C@H](C)[C@@H](CN(C)Cc1ccc(C(=O)O)cc1)O2
    6.7 | / | -2.6 | -3.7&-0.9 | i | / | 2.4&8.8 | 6.9&10.7 | -1.7&-13.6
O=C(CCNS(=O)(=O)c1ccc(Cl)cc1)NCc1cccnc1
    -3.4 | 73.1% | -9.7 | / | / | 0.749 | / | / | /
CC(C)(C)c1ccc(CC(=O)N2CCC2(C)C(=O)NS(=O)(=O)c2ccccc2Cl)cc1 (centres undefined)
    1.7 | / | / | 1.5 | i | / | -1.8 | 4.2 | 0.1
CCOc1cc(CNCc2ccc(C(=O)O)cc2)ccc1OC
    0.2 | 2.0% | -9.1 | -4.0 | i | 0.687 | 16.3 | 10.1 | -3.1
C[C@@H]1CCCCO[C@@H](CN(C)CC2CCCCC2)[C@@H](C)CN([C@H](C)CO)C(=O)c2cc(NS(=O)(=O)c3ccc(F)cc3)ccc2O1
    / | / | / | 2.0 | i | / | 1.6 | -0.8 | 1.2
NC(=O)CC[C@H](NC(=O)c1ccc(F)cc1)C(=O)OCC(=O)NCc1ccc(F)cc1
    -2.2 | -2.4% | 10.0 | -17.3 | i | / | 3.6 | 1.5 | 1.1
C[C@@H]1CN([C@@H](C)CO)C(=O)c2cc(NC(=O)Nc3ccc4c(c3)OCO4)ccc2O[C@@H]1CN(C)Cc1ccc(Cl)c(Cl)c1
    / | / | / | 5.5 | i | / | -5.5 | -6.3 | 6.1
O=C(Nc1ccc(S(=O)(=O)N2CCCCC2)cc1)c1ccco1
    1.2 | -1.4% | 2.9 | -2.4 | i | 0.649 | -2.9 | 4.5 | 3.9
CCCCOc1ncnc2c1[nH]c1ccc(OCC)cc12
    7.9 | -5.5% | -3.2 | / | / | 0.761 | / | / | /
NC(=O)c1ncc(C(F)(F)F)cc1Oc1cccnc1
    0.3 | -3.0% | 3.3 | 3.5 | i | 0.709 | 10.7 | 15.9 | 6.7
CC(C)NC(=O)C1(C)CCCN1C(=O)c1ccccc1Br (centres undefined)
    -4.4 | / | / | 0.9 | i | / | 8.9 | 18.9 | 4.9
O=C(CSc1nc(=O)n(CCN2CCOCC2)c2c1CCCC2)Nc1ccc(F)cc1F
    -4.1 | 7.5% | -4.0 | -0.1 | / | 0.607 | 4.8 | 0.2 | -0.5
CCOc1ccc(-c2onc(C(F)(F)F)c2-c2cscn2)c(O)c1
    -1.2 | 0.5% | -2.2 | 2.8 | i | 0.656 | -43.0* | -23.5* | -4.4*
COc1cccc(CNC(=O)c2ccc(Cl)c(S(=O)(=O)N3CCOCC3)c2)c1
    2.0 | 16.0% | / | 1.8 | i | 0.704 | 2.4 | -11.7 | 5.7
CCOC(=O)c1ccc(COC(=O)c2nonc2N)cc1
    2.5 | -1.2% | -0.3 | / | / | 0.707 | / | / | /
COc1ccc(CNc2ccc(N3CCOCC3)cc2)cc1
    1.8 | / | 98.9* | ? | i | 0.685 | 3.6 | 5.5 | -0.5
Cc1ccc(S(=O)(=O)N(C)C[C@@H]2Oc3ccc(NS(=O)(=O)c4ccc(Cl)cc4)cc3CC(=O)N([C@H](C)CO)C[C@@H]2C)cc1
    / | / | / | -2.0 | i | / | 3.1 | -1.5 | 0.7
CNCc1ccccc1Sc1ccc(O)c(O)c1
    -4.0 | 2.64µM* | 98.7* | 0.6 | i | 0.628 | -10.6 | -18.0 | 0.5
O=C(C[C@H]1C[C@H]2c3cc(NC(=O)Nc4ccc(C(F)(F)F)cc4)ccc3O[C@H]2[C@@H](CO)O1)NCc1cc(F)ccc1F
    / | / | / | -24.1 | i | / | 7.2 | 3.0 | 0.8
O=C(C[C@H]1C[C@@H]2c3cc(NC(=O)c4cccnc4)ccc3O[C@@H]2[C@H](CO)O1)NCc1cccc(F)c1
    / | / | / | -1.3 | i | / | 2.8 | -4.6 | -0.8
CCOc1ccc(C(=O)NC(C(=O)NCC2CCCO2)C(C)C)cc1 (centres undefined)
    0.5 | / | 2.5 | -3.5 | i | 0.674 | 10.5 | 5.2 | 1.2
COc1cc(C(=S)N2CCOCC2)cc(OC)c1OC(=O)c1ccc(F)cc1
    -3.8 | -0.9% | -34.2 | 3.2 | i | 0.67 | -6.5 | -2.5 | 0.5
CC(C)CNC(=O)c1cc(-c2ccco2)on1
    0.6 | 0.7% | 24.7 | -4.7 | i | 0.703 | 5.7 | 5.9 | -2.6
NC(=O)c1c(NC(=O)c2ccc(N3C(=O)CCC3=O)cc2)sc2c1CCCC2
    0.1 | 2.6% | 93.1* | 3.6 | i | 0.698 | -4.2 | 1.9 | 5.5
Cc1cc(C)nc(SCC(=O)Nc2ccc3c(c2)OCO3)n1
    -0.3 | -5.7% | -14.9 | 0.7 | i | 0.688 | 0.8 | -7.9 | -1.2
O=C(NCc1ccccc1)C1CCN(S(=O)(=O)c2cc([N+](=O)[O-])ccc2Cl)CC1
    -0.1 | 2.3% | -26.9 | -5.6 | i | 0.687 | 0.3 | 19.5 | -0.2
O=C(Cc1ccncc1)NCC[C@H]1CC[C@H](NS(=O)(=O)c2ccccc2Cl)[C@@H](CO)O1
    / | / | / | 2.0 | i | / | -0.1 | -3.6 | -0.3
COc1ccc(S(=O)(=O)N(C)C[C@@H]2OCCCC[C@@H](C)Oc3ccc(NC(=O)Nc4ccc(C(F)(F)F)cc4)cc3C(=O)N([C@@H](C)CO)C[C@@H]2C)cc1
    / | / | / | -15.9 | i | / | -1.0 | 0.5 | 1.5
C[C@@H]1CN([C@@H](C)CO)C(=O)c2cc(C#CC3CCCC3)cnc2O[C@@H]1CN(C)C(=O)c1ccncc1
    / | / | / | -0.8 | i | / | 5.1 | 6.2 | 0.0
CCC(CO)(CO)N(CC(=O)Nc1ccc(OC)cc1)CC(=O)Nc1ccc(OC)cc1
    2.8 | -4.3% | -17.2 | 9.0 | i | 0.68 | 1.7 | 5.4 | -0.6
O=C(CS(=O)(=O)Cc1ccccc1)N1CCN(c2ccccc2F)CC1
    -3.7 | -6.1% | 12.6 | -0.7 | i | 0.659 | -5.9 | -38.9 | -1.2

Fetched by compound from the list above (two):
Every second line gives: HNF4A DNA FP | Vif TR-FRET | ALR H2O2 inh | MLL AF4-AF9 inh | FGF22 binding | E coli growth | Ecoli rRNA inh | Ecoli rRNA inh OD600 | Ecoli rRNA inh RFP
O=C(C[C@H]1C[C@@H]2c3cc(NC(=O)c4cccnc4)ccc3O[C@@H]2[C@H](CO)O1)NCc1cccc(F)c1
    / | / | / | -1.3 | i | / | 2.8 | -4.6 | -0.8
O=C(Cc1ccncc1)NCC[C@H]1CC[C@H](NS(=O)(=O)c2ccccc2Cl)[C@@H](CO)O1
    / | / | / | 2.0 | i | / | -0.1 | -3.6 | -0.3

The listing continues:
Every second line gives: HNF4A DNA FP | Vif TR-FRET | ALR H2O2 inh | MLL AF4-AF9 inh | FGF22 binding | E coli growth | Ecoli rRNA inh | Ecoli rRNA inh OD600 | Ecoli rRNA inh RFP
O=C(Nc1ccccc1N1CCN(C(=O)c2ccc(Cl)cc2)CC1)c1cc(Br)ccc1Cl
    -1.4 | -7.1% | 0.0 | / | / | 0.743 | / | / | /
CCCCC1=CC2=CC(=O)C(C)(OC(=O)CC)C(=O)C2=CN1c1ccccc1 (centres undefined)
    1.2 | / | -9.9 | / | / | 0.67 | / | / | /
COc1ccc(-c2cn3c4c(sc3n2)CCCC4)cc1
    2.6 | -3.9% | 96.2* | / | / | 0.681 | / | / | /
CCOC(=O)N1CCN(C(=O)C2CCN(S(C)(=O)=O)CC2)CC1
    30.5* | -6.0% | -3.7 | 4.9 | i | 0.685 | 10.3 | 3.1 | -0.1
c1coc(-c2nc3ccccc3nc2-c2ccco2)c1
    -18.4 | 1.39µM* | 8.7 | 8.2 | i | 0.673 | -28.1* | 13.8* | -3.5*
O=C1NC[C@H](c2ccccc2)OC(=O)[C@@H](Cc2ccc(F)cc2)CC/C=C/C[C@H]1CC(=O)N(CCO)Cc1ccccc1
    -6.2 | / | -6.7 | 1.3 | i | / | -9.9 | -16.1 | -5.9
O=C(NCc1ccc(N2CCCC2=O)cc1)c1cnccn1
    0.3 | 1.3% | -4.8 | / | / | 0.698 | / | / | /
COc1ccc(OC)c(NC(=O)COC(=O)c2c3c(nc4ccccc24)CCCC3)c1
    0.9 | 3.7% | -8.4 | -17.8 | i | 0.705 | -27.5* | -13.9* | 5.9*
O=C(Nc1ccc(-c2csc(Nc3ccc(Cl)cc3)n2)cc1)c1ccccc1
    0.4 | / | 0.6 | -0.6 | i | 0.708 | -0.2 | 4.0 | -6.8
COCC(=O)Nc1ccc2c(c1)[C@H]1C[C@H](CC(=O)NCc3ccccc3F)O[C@@H](CO)[C@H]1O2
    / | / | / | -0.5 | i | / | -3.6 | 4.2 | 0.2
Cc1cc(=O)[nH]c(N2CCCCC2)n1
    -2.6 | -3.5% | / | -4.1 | i | / | 10.6 | 12.7 | -1.6
CCC(=O)N(C)C[C@@H]1Oc2cc(C#CC3CCCCC3)ccc2S(=O)(=O)N([C@H](C)CO)C[C@@H]1C
    / | / | / | -7.3 | i | / | -4.0 | -19.7 | 17.0
O=C(Nc1ccccn1)NC1CCS(=O)(=O)C1 (centres undefined)
    -0.9 | 7.1% | 1.9 | / | / | 0.711 | 5.6 | 3.1 | 4.1
COc1ccc(NC(=O)C2CCN(S(=O)(=O)c3ccc(N4CCCC4=O)cc3)CC2)cc1OC
    -1.5 | / | 1.1 | 0.5 | i | 0.731 | 10.9 | 10.1 | -0.6
